miR-21 FLuc: miR-21 reporter, rising signal; AID 2288; HeLa miR-21 FLuc reporter, luciferase, 48 h; Potency, µM (series often up to 38.3 µM), for the others: at the highest dose reporter change, positive = more light; 340,000 tested, under 10 active; active = well fitted rising curve with a large enough effect; inconclusive = small, poorly fitted or top-dose-only effect; inactive = no such curve, though single readings can be large or run the other way;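 also: % of control where 0% means no effect; miR-21 action dims this reporter so a rising signal means less miR-21 action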
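HeLa miR-21-FLuc reporter line, endogenous miR-21; 2000 cells/well in DMEM/10% FBS; compound titration up to ~40uM final, 48 h, 37 degree Celsius; luciferase detection reagent, 15 min lysis, CCD luminescence.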
Rango release inh: inhibitors of RanGTP-induced Rango-importin beta complex dissociation; Potency, µM (highest dose often 46.1 µM), inactives show at the top dose activity change, negative = inhibition; actives 0.071% (n = 340,000); Biochemical FRET Rango-importin beta, RanGTP-induced dissociation; O95149+P62826; AID 540253; active means falling FRET ratio curve, often poorly fitted, with flat reads before Ran was added; inconclusive means other falling curves, or compound fluorescence or quenching; inactive means flat or rising ratio curve;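 also: potency is read from the fitted curve at half-maximal effect; % of control where 0% means no effect; nearly all actives have a fitted effect of over 45% in size; -100% = wells without RanGTP and RCC1; the record marks most hits as doubtful in a second field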
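Quantitative HTS using a FRET biosensor: 0.1 uM Rango, 0.25 uM importin beta, 0.6 uM Ran, 2 mM GTP, 0.2 uM RCC1 final, PBS with DTT, Tween-20 and BSA. Post-read taken 45 min after Ran addition.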
GLA inh pH 4.5: blocks human alpha-galactosidase A at pH 4.5. 230,000 tested, under 10 active. purified enzyme, 4-MU-alpha-Gal fluorescence, pH 4.5. activity change, negative = inhibition, % at 105 µM. AID 1467; inconclusive = small, poorly fitted or top-dose-only inhibition, or a rising curve; inactive = flat fitted curve, though single readings scatter; no compound was filed as active;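 also: 0% = full activity with enzyme and -100% = basal without enzyme; dose as in the result columns while the protocol names 77 µM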
Target sequence (P06280 whole entry, looked up): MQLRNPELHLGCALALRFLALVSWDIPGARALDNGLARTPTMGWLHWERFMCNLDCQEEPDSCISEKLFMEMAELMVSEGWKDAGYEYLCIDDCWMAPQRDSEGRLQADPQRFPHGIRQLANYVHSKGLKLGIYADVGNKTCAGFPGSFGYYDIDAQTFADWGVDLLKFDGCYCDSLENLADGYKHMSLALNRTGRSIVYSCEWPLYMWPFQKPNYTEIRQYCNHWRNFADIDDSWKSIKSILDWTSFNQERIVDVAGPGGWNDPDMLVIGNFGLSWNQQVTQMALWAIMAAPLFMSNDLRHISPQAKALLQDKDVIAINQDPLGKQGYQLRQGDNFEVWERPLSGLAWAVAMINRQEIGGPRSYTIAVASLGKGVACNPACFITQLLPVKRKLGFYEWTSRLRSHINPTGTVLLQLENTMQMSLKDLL
Rango complex inh: Rango-importin beta binding inhibition | Q14974 | Rango CFP/YFP FRET sensor + importin beta, 45 min | Potency, µM (series often up to 92.2 µM), for the others: at the top dose inhibition of complex formation | actives 0.031% (n = 340,000) | AID 540263; active = rising FRET ratio curve, often small or poorly fitted; inconclusive = mostly compound fluorescence or quenching in the first reads; inactive = flat curves in all reads;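 also: potency is read from the fitted curve at half-maximal effect; 0% = DMSO wells and 100% = buffer wells lacking importin beta; nearly all actives have a fitted effect of over 15% in size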
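Inhibition scored from the CFP 486 nm/YFP 530 nm FRET ratio 45 min after adding 0.125 microM importin beta to 50 nM Rango biosensor preincubated 5 min with compound (room temperature, PBS with DTT, Tween-20, BSA). No-importin wells as positive control.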
* marks the source's active call; other numbers are inactive results; ? = inconclusive; · = no result given; & = joins results of further samples. An excerpt; rates above refer to the full screens.

SMILES	miR-21 FLuc	Rango release inh	GLA inh pH 4.5	Rango complex inh
O=C1CN(C(=O)CC2C(=O)NCCN2Cc2ccccc2C(F)(F)F)CCN1 (stereo unspecified)	-1%	-12%	·	?
Cc1[nH]c(=O)[nH]c(=O)c1S(=O)(=O)N1CCCC(C(=O)N2CCN(c3cccc(C(F)(F)F)c3)CC2)C1 (stereo unspecified)	-4%	-1%	5	4.8%
C/C(=N\NC(=O)COc1ccc(C#N)cc1)c1ccc(N2CCOCC2)cc1	-16%	1%	4	-3.3%
O=[N+]([O-])c1cccc(CSc2cccc[n+]2[O-])c1	1%	-7%	6	-1.9%
CCOc1cc(/C=C(\C#N)C(=O)Nc2cccc(C(=O)O)c2)ccc1OCc1ccc(Br)cc1	-4%	6%	·	?
CC(=O)Nc1ccc(S(=O)(=O)Nc2nc3nc(-c4ccccc4)cc(-c4ccccc4)n3n2)cc1	1%	?	·	?
CCC(=O)Nc1cccc(NC(=O)CSc2nnnn2C2CCCC2)c1	-4%	6%	-4	1.7%
COc1ccc(Cl)cc1NS(=O)(=O)c1cc(Br)cnc1N	-1%	15%	·	-3.8%
Cc1ccccc1-c1nc(CS(=O)(=O)CC(=O)N2CCN(C)CC2)c(C)o1	-6%	-9%	·	0.5%
CC(C)=C1C(=O)NN(c2ccc(C)c(Cl)c2)C1=O	-3%	-5%	-1	1.1%
COc1ccc(-c2cc(=O)oc3c(C)c(O)ccc23)cc1	24%	?	·	?
O=C(NCc1ccccc1Cl)c1cnccc1C(F)(F)F	2%	8%	4	-0.6%
CCOC(=O)c1c(C)oc2ccc(OS(C)(=O)=O)cc12	-23%	-2%	5	-0.2%
CC(=O)N(CCc1ccccc1)Cc1cc2cc(C)ccc2[nH]c1=O	-3%	13%	·	-0.3%
CCSc1nnc(N2C(=O)CC(c3ccsc3)C3=C2CC(C)(C)CC3=O)s1 (stereo unspecified)	-9%	29%	-11	4.7%
COC(=O)[C@H](Cc1ccccc1)NC(=O)O[C@H]1C(=O)c2ccc(OC)cc2O[C@@H]1c1ccc2c(c1)OCO2	-30%	10%	-6&-6	?
COc1cccc(C(=O)N2CCN(C3CCN(Cc4ccccc4)CC3)CC2)c1OC	-4%	1%	-2	-1.1%
CC(OC(=O)/C(C#N)=C/c1ccc(N(C)C)cc1)C(=O)N(C)c1ccccc1 (stereo unspecified)	·	?	·	?
OCCNCc1ccc(OCc2ccc(Cl)cc2Cl)cc1	-20%	0%	3	6.3%
NC(=O)c1ccc(NC(=O)CN2C(=O)NC(c3ccccc3)(c3ccccc3)C2=O)cc1	2%	14%	·	-0.1%

Whole records as entered above. Screens in order: miR-21 FLuc	Rango release inh	GLA inh pH 4.5	Rango complex inh
CC(C)=C1C(=O)NN(c2ccc(C)c(Cl)c2)C1=O across the screens: -3%	-5%	-1	1.1%
Cc1ccccc1-c1nc(CS(=O)(=O)CC(=O)N2CCN(C)CC2)c(C)o1 across the screens: -6%	-9%	·	0.5%

New compounds follow.
SMILES	miR-21 FLuc	Rango release inh	GLA inh pH 4.5	Rango complex inh
CCc1ccccc1NC(=O)C1CCCN(S(=O)(=O)c2ccc3c(c2)CC(C)N3C(C)=O)C1 (stereo unspecified)	13%	4%	·	-3.2%
Cc1nn(C)c(C)c1NC(=O)CC12CC3CC(CC(C3)C1)C2	-7%	-6%	-1	0.6%
Fc1ccc(-c2nnc(N3CCOCC3)c3ccccc23)cc1F	-6%	2%	·	-3.6%
CCOc1ccc(C(=O)c2ccncc2)cc1	-14%	6%	-4	-0.3%
COc1ccc2nc3oc(C(=O)Nc4ccc(OC)c(OC)c4)cc3cc2c1	-2%	-1%	5	?
CCOC(=O)/C(=C/c1c2ccccc2cc2ccccc12)NC(=O)c1ccccc1	6%	?	2	?
CCCCc1nc(SCC(=O)N2CCCC2)c2c(=O)n(C)c(=O)n(C)c2n1	0%	11%	·	0.4%
COc1cc(OC)cc(C(=O)NNC(=O)C2CSC3(C)CCC(=O)N23)c1 (stereo unspecified)	·	-2%	·	1.1%
NC(=O)c1cccnc1Oc1cccc(Cl)c1	-1%	17%	-8	?
CSc1ccc(-c2ccco2)nn1	-40%	-7%	-1	?
COc1ccccc1NC(=S)NNC(=O)c1nn(C)c(C)c1Br	-55%	0%	-1	-0.7%
COC(=O)[C@@H]1C[C@H]1[C@@H](NC(=O)c1cc(C)on1)c1ccccc1	·	2%	-6	0.4%
CCCc1cc(=O)oc2cc(C)cc(OCC(=O)O)c12	6%	10%	-7	7.2%
O=C(N/N=C/C=C\c1ccco1)c1cccnc1	-3%	-5%	-2	-4.6%
COc1cc(O)c(C(CC(=O)N2CCN(c3ccccc3)CC2)c2cc(OC)c(OC)c(OC)c2)c(OC)c1 (stereo unspecified)	2%	-1%	-20	-1.5%
CCc1ccc(NC(=O)CSc2ccc(-c3cccnc3)nn2)cc1	0%	3%	·	3.9%
COc1ccc(C2C(C#N)=C(N)Oc3n[nH]c(-c4ccccn4)c32)c(OC)c1OC (stereo unspecified)	9%	-8%	-4	-0.9%
CCOC(=O)CC1C(=O)NCCN1C(=O)c1ccc(Cl)cc1Cl (stereo unspecified)	-5%	12%	·	-6.1%
Cc1occc1C(=O)NNC(=O)c1nn(C)c(=O)c2ccccc12	-8%	-20%	-7	0.3%
CCOc1ccc(NC(=O)CC2C(=O)N(c3cccc(OC)c3)C(=O)N2CCOC)cc1 (stereo unspecified)	0%	11%	0	1.1%
Cc1noc(C)c1S(=O)(=O)N(C)C[C@H]1Oc2c(NS(=O)(=O)c3cn(C)cn3)cccc2C(=O)N([C@H](C)CO)C[C@@H]1C	·	3%	·	-3.1%
COc1ccccc1/C(O)=C(\C#N)c1nc2ccccc2[nH]1	-2%	4%	-2	-0.2%
CCN(CC)CCCN(Cc1cc2ccc(C)c(C)c2[nH]c1=O)C(=O)NC1CCCCC1	-3%	-8%	0	0.7%
Cc1cc(OCc2cc(C(=O)N(C)C3CCOC3)no2)cc(C)c1Cl (stereo unspecified)	-48%	21%	·	-3.5%
CC(NCC(O)COc1ccc(Br)cc1)c1ccccc1 (stereo unspecified)	5%	-4%	·	-1.3%
COc1ccc(-c2c(C(=O)O)nc3ccccc3c2C(=O)O)cc1	-8%	3%	2	2.7%
Cc1ccc(CN(C)C(=O)CN2C(=O)NC3(CCCc4ccccc43)C2=O)c(C)c1 (stereo unspecified)	·	8%	·	-3.4%
CC1Cc2ccccc2N1C(=O)CSc1ccccc1 (stereo unspecified)	-31%	-10%	0	2.1%
CC1CCCN(C(=O)Cn2nnc(-c3ccc(F)cc3)n2)C1 (stereo unspecified)	-8%	-8%	·	0.6%
CC(C)NC(=O)NC(=O)COc1c(F)c(F)cc(F)c1F	-7%	1%	-8	-1.8%
O=C(NNc1nc2ccccc2s1)Nc1ccc(Cl)c(Cl)c1	-16%	7%	-1	-4.8%
COC(=O)C1C(O)=C(C=Nc2ccc3ccccc3c2)C(=O)CC1(C)C (stereo unspecified)	-26%	1%	?	1.1%
Cc1cc(S(=O)(=O)Nc2ccc(C(=O)NCCCN3CCCC3=O)cc2)ccc1F	·	-15%	·	0.2%
CCOC(=O)C1=C(COC(=O)/C=C/c2ccco2)NC(=O)NC1C (stereo unspecified)	·	?	·	?
Cc1csc(/C(C#N)=N/O)n1	4%	-1%	9	-1.4%
Cc1cc(C)c(C#N)c(SCc2c(F)cccc2[N+](=O)[O-])n1	-5%	31%	2	0.3%
CC1CCCCC1NC(=S)Nc1ccc(SC(F)F)cc1 (stereo unspecified)	?	30%	0	-1.9%
COc1ccc(S(=O)(=O)N2CCCCCC2)cc1Br	-13%	-5%	-1	-1.4%
N/C(=N\OCC(=O)Nc1ccc(F)c(Cl)c1)c1ccccc1	·	10%	·	3.2%
Cc1ccc(NC(=O)C(C)Sc2nc3nc(C)cc(C)n3n2)cc1 (stereo unspecified)	·	-3%	·	0.1%
Cc1cc(=O)[nH]c(N2CCCCC2)n1	·	2%	·	-1.2%
COc1ccccc1OCC#CCSc1ncccn1	-39%	10%	4	0.6%
Cc1cc(C)c(NC(=O)CNC(=O)Cc2sc(C)nc2-c2ccc(F)cc2)c(C)c1	·	-6%	·	-2.3%
C[C@]12CC[C@@H]3c4ccc(O)cc4CC[C@H]3[C@@H]1C[C@@H](O)[C@@H]2O	-8%	21%	-5	-1.0%
COc1ccccc1-c1noc(Cn2cc(S(=O)(=O)N3CCCC3)ccc2=O)n1	·	0%	·	?
Cc1ncc(C(=O)O)c(C(=O)O)c1N	-1%	?	-7	?
O=C(CSc1ncccc1-c1nc2ccccc2[nH]1)NCc1ccco1	-11%	?	2	?
O=C(CCC(=O)N1CCN(S(=O)(=O)c2ccc(Cl)cc2)CC1)NCc1ccccc1	-5%	2%	-1	0.1%
CC(C)OCCCN1CC(=O)N2[C@@H](Cc3c([nH]c4ccccc34)C2(C)C)C1=O	-5%	5%	·	2.9%
O=C(CSc1ncnc2c1oc1ccccc12)NC1CCCCC1	-2%	46%	-13	-0.6%
O=C(COC(=O)C1CCC(=O)N1)Nc1ccccc1Br (stereo unspecified)	-1%	1%	3	0.9%

Arranged by SMILES length (falling): some entries from above.
SMILES	miR-21 FLuc	Rango release inh	GLA inh pH 4.5	Rango complex inh
C[C@]12CC[C@@H]3c4ccc(O)cc4CC[C@H]3[C@@H]1C[C@@H](O)[C@@H]2O	-8%	21%	-5	-1.0%
CC(C)OCCCN1CC(=O)N2[C@@H](Cc3c([nH]c4ccccc34)C2(C)C)C1=O	-5%	5%	·	2.9%
Cc1cc(C)c(NC(=O)CNC(=O)Cc2sc(C)nc2-c2ccc(F)cc2)c(C)c1	·	-6%	·	-2.3%
Cc1cc(S(=O)(=O)Nc2ccc(C(=O)NCCCN3CCCC3=O)cc2)ccc1F	·	-15%	·	0.2%
COc1ccccc1-c1noc(Cn2cc(S(=O)(=O)N3CCCC3)ccc2=O)n1	·	0%	·	?
Cc1cc(C)c(C#N)c(SCc2c(F)cccc2[N+](=O)[O-])n1	-5%	31%	2	0.3%
CCOC(=O)C1=C(COC(=O)/C=C/c2ccco2)NC(=O)NC1C (stereo unspecified)	·	?	·	?
Cc1ccc(NC(=O)C(C)Sc2nc3nc(C)cc(C)n3n2)cc1 (stereo unspecified)	·	-3%	·	0.1%
N/C(=N\OCC(=O)Nc1ccc(F)c(Cl)c1)c1ccccc1	·	10%	·	3.2%
O=C(CSc1ncnc2c1oc1ccccc12)NC1CCCCC1	-2%	46%	-13	-0.6%
O=C(COC(=O)C1CCC(=O)N1)Nc1ccccc1Br (stereo unspecified)	-1%	1%	3	0.9%
COc1ccc(S(=O)(=O)N2CCCCCC2)cc1Br	-13%	-5%	-1	-1.4%
Cc1cc(=O)[nH]c(N2CCCCC2)n1	·	2%	·	-1.2%
COc1ccccc1OCC#CCSc1ncccn1	-39%	10%	4	0.6%
Cc1csc(/C(C#N)=N/O)n1	4%	-1%	9	-1.4%
